Bioassay records: PubChem, SRMLSC
H5N1 antiviral = MDCK cell protection from H5N1 avian flu; inhibition, % at 50 µM; 96,000 compounds, 0.07% hits; cytopathic effect, luminescence, 72 h; hits give high values; no value below 0 was filed and about half of the inactive calls have no number; reference of the scale not given here; in the data active = inhibition above about 25%
An asterisk follows results filed as active; i = inactive. Not all compounds are listed, so the mix of outcomes need not match the whole.

SMILES | H5N1 antiviral
CCOC(=O)c1ccc(NC(=O)N(CC)CC)cc1 | 0.5
O=C(O)CSCC(=O)Nc1cccc(C(F)(F)F)c1 | 0.8
O=C1CC(SCc2nc3ccccc3[nH]2)C(=O)N1c1ccc(F)c(Cl)c1 (stereo unspecified) | i
Clc1ccc(-n2ncc3c(NCc4ccc5c(c4)OCO5)ncnc32)cc1 | i
COc1ccc(N2CCN(C(=O)CN(c3ccccc3)S(=O)(=O)c3ccc(OC)cc3)CC2)cc1 | 0.9
CCOC(=O)c1c(C)n(C)c2ccc(OC)c(NC(=O)CN3CCN(C(=O)c4ccco4)CC3)c12 | 1.6
CCOC(=O)CN1Cc2cccc(C(=O)O)c2C1=O | 1.3
Cc1ccc(OCCCC(=O)Nc2nccs2)cc1 | i
COc1cccc(-n2c(C)nc3ccccc3c2=O)c1 | 0.1
O=c1c2c(nc3cc(-c4ccccc4)[nH]n13)CCC2 | i
O=C(COc1ccc(Cl)cc1)N1CCN(C/C=C/c2ccccc2)CC1 | i
CC1CCC(C(=O)c2c(O)c3ccccc3oc2=O)CC1 (stereo unspecified) | 0.9
CCOc1ccc(N(Cc2cc3cc(OC)ccc3[nH]c2=O)S(C)(=O)=O)cc1 | i
N#C/C(=C\c1cn(Cc2ccccc2C#N)c2ccccc12)C(=O)NCc1cccs1 | 0.1
CCN(CC(=O)NC)S(=O)(=O)c1ccc(C)cc1 | i
Cc1cc(C)cc(NC(=O)c2snc3c(=O)[nH]cnc23)c1 | 2.3
CS(=O)(=O)N(CC(=O)NC1CCCC1)c1cccc(F)c1 | i
N#Cc1cc(-c2ccc(Cl)cc2)cnc1Sc1ccc(F)cc1 | i
Cc1cc(S(=O)(=O)Nc2ccc(N(C)C)cc2)c(C)s1 | 0.8
Cn1cnnc1SCc1ccc(C(=O)O)cc1 | 1.2
O=C(COc1ccc(-c2ccccc2)cc1)N/N=C/c1ccccc1Br | i
Cc1ccc(C)c(S(=O)(=O)NCc2ccc(C(=O)N3CCC(Cc4ccccc4)CC3)cc2)c1 | 10
Cc1cc(NS(=O)(=O)c2ccc(NC(=O)c3ccco3)cc2)no1 | 0.5
O=C1CCC([N+](=O)[O-])C(c2cccc(Cl)c2Cl)N1 (stereo unspecified) | i
O=C(CSc1nnc(-c2ccc(S(=O)(=O)N3CCCC3)cc2)o1)NCc1ccco1 | i
N#Cc1nc(Cc2ccccc2)oc1NCCCn1ccnc1 | 0.1
CC1Cc2ccccc2N1C(=O)CSc1nnnn1-c1ccc2c(c1)OCCO2 (stereo unspecified) | i
CCOC(=O)c1ccc(NC(=O)C2C3CCC(C3)C2C(=O)O)cc1 (stereo unspecified) | i
O=C(C1CCCCC1)N1CCCn2c1nc1ccccc12 | 7.1
O=C(O)CCC(=O)N1CCc2cc(S(=O)(=O)N(CCc3ccccc3)Cc3ccccc3)ccc21 | 0.6
COCCOC(=O)c1[nH]c2c(c1C)C(=O)C(C(=O)OC)C(C)C2 (stereo unspecified) | 1.3
CCc1nc(N2CCCCC2)c2oc3ccccc3c2n1 | 0.3
Clc1ccc(OCc2nc(-c3ccccn3)n[nH]2)cc1 | i
COc1ccc(CCn2nnnc2C(c2ccccc2)N2CCN(C)CC2)cc1OC (stereo unspecified) | i
CN(C)c1cc(C(F)(F)F)nc(-c2ccccn2)n1 | 0.4
COc1ccc(Nc2nc(N)nc(COc3ccc(OC)cc3)n2)cc1 | 1.0
C[n+]1cccc(CNC(=O)/C=N/O)c1 | 0.1
COc1ccccc1NC(=O)N1CCC(C(=O)c2ccc(F)cc2)CC1 | i
COc1cccc(OC)c1C(=O)NN1CCCCC1 | i
COc1ccc(-c2csc(NC(C)=O)n2)cc1OC | 1.6
Cc1nnc(SCC(=O)Nc2ccc3c4c(cccc24)CC3)n1C | i
COc1cc2c(cc1OC)C1=NC(=O)CN1C(SCc1ccccc1)=N2 | 1.8
Cc1cc(C(=O)N2CCN(Cc3ccc4c(c3)OCO4)CC2)cs1 | 1.7
CC(NC(=O)COc1ccc(Oc2ccccc2)cc1)C(=O)O (stereo unspecified) | i
Cc1n[nH]c(C)c1C(=O)CC1(O)C(=O)N(CCc2ccccc2)c2ccc(Cl)cc21 (stereo unspecified) | 0.2
Cc1cc(C)c2c(n1)sc1c(N3CCN(CCO)CC3)ncnc12 | 0.8
O=C1CCc2cc(S(=O)(=O)N3CCN(C(=O)c4ccco4)CC3)ccc2N1 | 0.8
CCCOP(=O)(OCCC)C(Nc1ccc(C(C)C)cc1)c1ccc([N+](=O)[O-])cc1 (stereo unspecified) | 0.4
O=C(c1ccccc1)N1CCSC1=S | 0.5
N/C(=N\OC(=O)C1CCCCC1)c1cccnc1 | i
Cc1cc(/C=N/Nc2ccc([N+](=O)[O-])cn2)c(C)n1-c1ccccc1 | i
Cc1ccc(OCCNS(=O)(=O)c2ccc(N3CCCC3=O)cc2)cc1C | 0.6
O=S(=O)(c1cccc2nonc12)N1CCN(c2cccc(Cl)c2)CC1 | 1.1
CCOC(=O)C1CCCN(S(=O)(=O)c2cn(C)c(=O)n(C)c2=O)C1 (stereo unspecified) | i
Cc1c(=O)n(OCc2ccccc2F)c2ccccc2[n+]1[O-] | 1.3
O=C(Cc1ccccc1)NN1C(=O)C2C3C=CC(C3)C2C1=O (stereo unspecified) | i
Cc1ccc(S(=O)(=O)Cn2nnnc2CN2CCOCC2)cc1 | 0.1
O=C(O)c1ccc2c(c1)ncn2C1CCCCC1 | 1.8
CN1CCN(S(=O)(=O)c2ccc(NC(=O)C3CCCCC3)cc2)CC1 | 0.5
C[C@H](NC(=O)c1ccco1)C(=O)Nc1ccc(S(=O)(=O)N2CCCC2)cc1 | i

Next section
SMILES | H5N1 antiviral
O=C(Cc1sc(-c2ccccc2Cl)nc1-c1ccccc1)Nc1ccccc1 | 0.3
COc1cc(-c2nnc(SCC3(c4ccc(Br)cc4)OCCO3)o2)cc(OC)c1OC | i
O=C(NCc1cccc(C(F)(F)F)c1)C1CC(c2c(Cl)cccc2Cl)=NO1 (stereo unspecified) | 0.1
COCCn1c(SCC(=O)c2ccc(F)cc2)nnc1C(C)C | 0.1
Cc1csc(NC(=O)c2ccccc2C(=O)O)n1 | i
O=C(O)[C@H](Cc1ccccc1)N1C(=O)c2ccncc2C1=O | 0.3
COc1ccccc1Nc1nc(N)nc(CSc2nc(C)cc(C)n2)n1 | i
CCOc1ccc(NC(=O)N(CCN2CCOCC2)Cc2ccc3c(c2)CCCN3CC)cc1 | i
CC(C)C(C)(C#N)NC(=O)CSc1ncnc2sc(-c3ccccc3)cc12 (stereo unspecified) | i
Cc1ccc(NC2=NC(c3ccccc3)n3c(nc(C)cc3=O)N2)cc1 (stereo unspecified) | i
CCOC(=O)c1ccc(S(=O)(=O)N2CCC(C(=O)O)CC2)cc1 | i
c1ccc(CCNc2ncnc3nc[nH]c23)cc1 | 0.5
Cc1ccc(N(CC(=O)NCc2ccc3c(c2)OCO3)S(C)(=O)=O)cc1 | i
COCCn1c(SCC(=O)Nc2nc(C)c(Cl)cc2Cl)nc2ccccc21 | i
CCCSc1nc(NCc2ccco2)c2c3c(sc2n1)COC(C)(C)C3 | 1.6
Cc1cc(C)cc(OCC(=O)NN2Cc3ccccc3C2=N)c1 | i
CC1CCC(NC(=O)CC2Oc3ccccc3NC2=O)CC1 (stereo unspecified) | i
O=C(CCc1ccc(S(=O)(=O)N2CCOCC2)cc1)Nc1nc(COc2ccccc2)cs1 | i
N#CCCN(C(=O)Nc1ccccc1)c1ccccc1 | 1.2
COC(=O)n1c(=S)oc2cc(Cl)ccc21 | i

Two entries from above, as labelled records:
COc1cc2c(cc1OC)C1=NC(=O)CN1C(SCc1ccccc1)=N2
  H5N1 antiviral: 1.8

Cc1cc(C(=O)N2CCN(Cc3ccc4c(c3)OCO4)CC2)cs1
  H5N1 antiviral: 1.7

Next part:
SMILES | H5N1 antiviral
COC(=O)c1c(C(=O)OC)c(-c2cccc(C)c2)n2c1CS(=O)(=O)C2 | 0.3
CCOc1ccc(NC(=O)C2CC(C)=C(C)CC2C(=O)O)cc1 (stereo unspecified) | i
S=C(Nc1cccc(Cl)c1)NC1CCCCC1 | i
COc1ccc(CCNC2=NCC(C)S2)cc1 (stereo unspecified) | 0.1
CCn1c(C)cc(/C=C2\SC(=O)N(CC(=O)Nc3ccc(C)c(C)c3)C2=O)c1C | i
O=C(N/N=C/c1ccc(Cl)cc1Cl)Nc1ccccc1 | i
CCOC(=O)c1ccc(NC(=O)CC2SCCNC2=O)cc1 (stereo unspecified) | i
Cc1ccccc1NC(=O)CSCC(=O)Nc1ccccc1C | i
CCOC(=O)N1CCN(C(=O)c2cc3c(-c4ccc(Cl)cc4)nn(C)c3s2)CC1 | i
C=CCn1c(O)c(C=Nc2ccc(OC)cc2C)c(=O)[nH]c1=O | 0.3
CCOC(=O)c1c(NC(C)=O)sc2c(O)c(Br)ccc12 | i
Cc1ccc(Cl)cc1NC(=O)c1cnn2c1NC(c1ccco1)CC2C(F)(F)F (stereo unspecified) | i
CCc1ccccc1NC1c2ccccc2C(=O)N1c1cc(C)ccn1 (stereo unspecified) | 0.5
CCn1c(=N)c(C(=O)NCCCOC)cc2c(=O)n3cccc(C)c3nc21 | 3.1
Cc1ccc2c(CN3CCCc4ccccc43)cc(=O)oc2c1C | i
CC(C)=CCSc1nnc(CCNC(=O)OC(C)(C)C)o1 | i
CCCc1cc(=O)[nH]c(SCC(=O)Nc2nonc2N)n1 | i
O=C(O)CCS(=O)(=O)Cc1ccccc1F | 0.1
COc1cc(OC)cc(C(=O)N(CN2CCCC2=O)c2ccccc2OC)c1 | 1.1
CCN(CC)c1ncnc2c1sc1nc(N3CCOCC3)c3c(c12)CCC3 | i

Laid out differently: four of the compounds above
SMILES,H5N1 antiviral
O=C(CSc1nnc(-c2ccc(S(=O)(=O)N3CCCC3)cc2)o1)NCc1ccco1,i
N#Cc1nc(Cc2ccccc2)oc1NCCCn1ccnc1,0.1
CC1Cc2ccccc2N1C(=O)CSc1nnnn1-c1ccc2c(c1)OCCO2 (stereo unspecified),i
CCOC(=O)c1ccc(NC(=O)C2C3CCC(C3)C2C(=O)O)cc1 (stereo unspecified),i

New compounds follow.
SMILES | H5N1 antiviral
CN1C(=O)CSc2ccc(NC(=O)N3CCc4ccccc43)cc21 | i
COc1cccc2sc(Nc3nnc(-c4ccccc4Cl)o3)nc12 | i
O=C(NCCCN1CCN(c2ccc(F)cc2)CC1)c1cccc(N2CCCC2=O)c1 | 0.5
COCc1cc(C2SCC(=O)Nc3c2c(=O)[nH]n3C(C)C)ccc1OC (stereo unspecified) | 0.1
COc1cccc(C=Nc2cc(C)on2)c1O | i
CC(NC(=O)CN1C(=O)NC(Cc2ccccc2)(Cc2ccccc2)C1=O)C12CC3CC(CC(C3)C1)C2 (stereo unspecified) | i
FC(F)(F)c1cccc(Sc2nc(-c3ccccc3)nnc2C(F)(F)F)c1 | i
CCNC(=S)NNC(=O)C1CCCCC1 | i
Cc1cc(C)c(C)c(S(=O)(=O)NCC(=O)O)c1C | 0.5
O=C1CCCC2=C1C(c1ccncc1)c1c(nc(SCc3ccccc3)[nH]c1=O)N2 (stereo unspecified) | i
CCNC(=O)CC1C(=O)N(c2ccccc2)C(=O)N1CCc1ccc(OC)cc1 (stereo unspecified) | i
COc1ccccc1OCCCCNCCO | 0.4
O=C(Nc1ccc2c(c1)OCCO2)c1ccco1 | i
O=C(c1c(F)cccc1F)N1CCN(c2ncccn2)CC1 | 0.2
O=C(Nc1ccccc1)Nc1nnc(-c2ccccc2)o1 | 0.1
CCOC(=O)c1[nH]c(C)c(C(=O)NCCC2=CCCCC2)c1C | i
C/C(N)=C(/C#N)C(=O)COC(=O)CCS(=O)(=O)c1ccccc1 | 0.1
O=C(CSc1ncccn1)Nn1cnnc1 | i
CC(C)C[C@H](NC(=O)N1CCN(c2ccccc2)CC1)C(=O)O | 0.0
C=CCn1c(SCc2cccnc2)nnc1-c1ccncc1 | i

Nothing new here: entries from further up.
SMILES | H5N1 antiviral
CCNC(=S)NNC(=O)C1CCCCC1 | i
Cc1cc(C)c(C)c(S(=O)(=O)NCC(=O)O)c1C | 0.5
O=C1CCCC2=C1C(c1ccncc1)c1c(nc(SCc3ccccc3)[nH]c1=O)N2 (stereo unspecified) | i

The list continues:
SMILES | H5N1 antiviral
Cn1c(C(O)c2ccc(Cl)cc2)nc(Cl)c1Cl (stereo unspecified) | i
CC(=O)c1c(C)[nH]c(C(=O)N2CCN(c3cc(Cl)ccc3C)CC2)c1C | i
CN1CCC(N(C)c2ncnc3ccc(Br)cc23)CC1 | i
CC(=O)Nc1ccc(C(=O)OCC(=O)NC(=O)NC2CCCCC2)cc1 | i
COC(=O)C1CCN(c2nc3ccccc3nc2C(C#N)C(=O)NCCc2ccccc2)CC1 (stereo unspecified) | i
CCC(C)(C(=O)NC1CCCCC1)N(C(=O)CNC(C)=O)c1c(C)n(C)n(-c2ccccc2)c1=O (stereo unspecified) | 0.3
CCCn1c(SCC(=O)Nc2ccccc2-c2ccccc2)nnc1-c1ccoc1C | i
CCOc1ccc(NC(=O)C(C)Oc2ccccc2C(=O)Nc2cccc(Cl)c2Cl)cc1 (stereo unspecified) | 0.1
Cc1cccc(N2C(=O)CSC2c2cccnc2)c1 (stereo unspecified) | 1.0
Fc1ccc(-c2cc(C(F)(F)F)nc(N3CCCCC3)n2)cc1 | i
Cc1ccc(-c2cc(C(=O)Nc3ccc4c(c3)OCCO4)c3ccccc3n2)cc1 | i
CCOC(=O)CSc1nc(C)c(C(=O)OCC)s1 | i
CCOC(=O)c1cn2nc(-c3ccc(OC)cc3)cc2nc1C1CCN(C(=O)OC(C)(C)C)CC1 | 1.1
CCOC(=O)C1CCN(C(=O)CCCN2C(=O)c3ccccc3C2=O)CC1 | 0.4
CCOC(=O)c1cnc(-c2ccccc2)nc1Oc1ccccc1 | 0.6

Pulled by structure from the list above (4):
SMILES | H5N1 antiviral
CCOc1ccc(NC(=O)C(C)Oc2ccccc2C(=O)Nc2cccc(Cl)c2Cl)cc1 (stereo unspecified) | 0.1
CC(=O)Nc1ccc(C(=O)OCC(=O)NC(=O)NC2CCCCC2)cc1 | i
CC(=O)c1c(C)[nH]c(C(=O)N2CCN(c3cc(Cl)ccc3C)CC2)c1C | i
Cn1c(C(O)c2ccc(Cl)cc2)nc(Cl)c1Cl (stereo unspecified) | i
